Ab BasE inh = BasE siderophore biosynthesis inhibition; AID 485350; 84,000 tested, 0.1% active; inhibition, % (concentration not given with the values); purified BasE, fluorescence polarization binding displacement;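 active = both replicates above 25% with normal brightness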;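 note: 0% = negative plate control signal and 100% = positive plate control signal; stock transfer was 100 nL into about 30 µL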
LANA-nucl inh = inhibitors of KSHV LANA binding to nucleosomes; FITC-LANA1-23 / chicken nucleosome fluorescence polarization; stronger effect = lower value; z-score (concentration not given with the values); 51,000 tested, 0.3% active; AID 720717;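 active = both repeat wells score below -2 in polarization z-score versus plate sample wells, excluding overly bright wells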;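 note: 100 nL library stock added to about 30 µL; numbers are from one replicate; some results filed as inactive read as strong as hits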
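test system = FITC-LANA peptide and chicken nucleosomes | amount = 240 nM purified chicken nucleosomes (480 nM peptide binding sites), final | reagent = 50 nM FITC-LANA1-23 probe | medium = TEN-BT buffer, pH 7.5 | doses = single compound addition by pin transfer, 100 nL per well | timing = 10–45 min, room temperature | detection = fluorescence polarization | repeats = duplicate plates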
* = called active by the depositor; · = not tested or not shown. Some of the compounds tested, so the mix of outcomes need not match the whole.

item	smiles	Ab BasE inh	LANA-nucl inh
1	Cc1cc(C)c(S(=O)(=O)N2CCN(C(=O)C3CC3)CC2)c(C)c1	0.2	·
2	Cc1nc(C(F)(F)F)ccc1C(=O)N1CCSCC1	-0.2	0.859
3	COC(=O)c1c(NC(=S)NC(=O)c2ccccc2)sc2c1CCCC2	1.1	·
4	COc1ccc(CCN(C)S(=O)(=O)c2cn(C)c(=O)n(C)c2=O)cc1OC	-0.4	·
5	Cc1ccc(-c2nc(SC3CC(=O)N(c4ccccc4)C3=O)n[nH]2)cc1 (stereo unspecified)	1.0	·
6	CCNS(=O)(=O)c1cc(-c2nnc(OC)c3ccccc23)ccc1C	0.1	·
7	C(=N\n1cnnc1)/c1cccc(/C=N/n2cnnc2)c1	-1.8	0.043
8	COCCn1c(O)c(C(C)=NCC(C)(C)N2CCOCC2)c(=O)[nH]c1=S	3.6	·
9	CC1CCN(C(=O)c2ccc3nc(N4C(=O)CCC4=O)sc3c2)CC1	0.3	-0.876
10	Cc1noc2nc(-c3cccs3)cc(C(=O)NNC3=NCCCCC3)c12	-1.9	·
11	CCOc1ccc(N(CC(=O)Nc2ccccc2)S(C)(=O)=O)cc1	-0.3	-0.0015
12	CC(C)C1N(C(=O)N(C)C)CCN1S(=O)(=O)c1ccccc1 (stereo unspecified)	-0.8	-0.693
13	CC(=O)N1CC=C(c2c(C)[nH]c3ccccc23)CC1	0.3	0.383
14	CCCc1cc(NCC2CCCO2)n2c(nc3ccccc32)c1C#N (stereo unspecified)	0.1	-0.372
15	O=C1Nc2ccccc2/C1=C\c1ccccc1N1CCN(Cc2ccccc2)CC1	2.4	·
16	N#Cc1ccsc1NC(=O)COc1ccc(-c2nnco2)cc1	1.9	·
17	O=C(Nc1ccccc1C(F)(F)F)C1CCC1	-0.7	0.011
18	COc1cc(C(F)(F)F)c(C(=O)N(C)Cc2cccc(Cl)c2)cn1	·	-0.51
19	NS(=O)(=O)c1ccc(NC(=O)CC2SC(=O)NC2=O)cc1 (stereo unspecified)	1.3	·
20	CC(CN)(NS(=O)(=O)c1ccccc1)c1ccccc1 (stereo unspecified)	-2.0	0.73
21	O=C(c1ccc(=O)[nH]n1)N1CCc2ccccc21	-0.2	·
22	CN(C)/C=C1\N=C(c2cccnc2Oc2ccc(Cl)cc2)OC1=O	2.5	·
23	Cc1cccc(N2C(=O)c3cccc4c(N5CCNCC5)ccc(c34)C2=O)c1	15.5	-0.455
24	Cc1cnc(C(=O)OCc2ccc(Br)cc2)cn1	-0.8	·
25	OCCCNc1nnc(-c2ccccc2)c2ccccc12	-3.7	·
26	CCOc1nc(SC)nc2sc3c(c12)CC(C)(C)OC3	2.4	0.0685
27	O=C(COC(=O)C1CCN(S(=O)(=O)c2ccc3c(c2)OCCO3)CC1)Nc1cc(C(F)(F)F)ccc1Cl	1.1	·
28	Cc1cc(C(=O)COC(=O)c2ccc3c(c2)C(=O)N(Cc2ccco2)C3=O)c(C)n1C	1.4	·
29	O=S(=O)(c1cccc2nsnc12)N1CCN(C/C=C/c2ccccc2)CC1	2.4	-1.27
30	CN1C(=O)NC(=O)/C(=C/c2ccc(F)cc2)C1=O	1.6	-0.505

Two records picked at random from those above, as already listed:
item	smiles	Ab BasE inh	LANA-nucl inh
28	Cc1cc(C(=O)COC(=O)c2ccc3c(c2)C(=O)N(Cc2ccco2)C3=O)c(C)n1C	1.4	·
2	Cc1nc(C(F)(F)F)ccc1C(=O)N1CCSCC1	-0.2	0.859

(more compounds)
item	smiles	Ab BasE inh	LANA-nucl inh
31	Cc1sc2nc(SCC(=O)NC3CCCCC3)[nH]c(=O)c2c1C	5.0	·
32	O=C1/C(=C\c2ccc(Br)o2)CCC/C1=C\c1ccc(Br)o1	4.7	0.018
33	CN(C)c1ccc(/C=C2/SC(=O)N(CCN=C3NS(=O)(=O)c4ccccc43)C2=O)cc1	1.1	2.31
34	CC(=O)Oc1cccc(-c2nc(C(N)=O)c(N)o2)c1	5.0	·
35	CC1=NN(c2ccc(Cl)cc2)C(=O)C12Cc1c(C)nn(-c3ccccc3)c1N1CCCC12 (stereo unspecified)	3.5	·
36	COc1ccc(S(=O)(=O)N(C)S(=O)(=O)c2ccc3ccccc3c2)cc1	2.8	·
37	CN(C)CCCN1CNC(=S)NC1	1.1	0.359
38	CC(C)COC1C(=O)CCCC1CC(=O)O (stereo unspecified)	0.3	1.53
39	CCN1C(=O)CC(NC2CCN(C(=O)c3cccs3)CC2)C1=O (stereo unspecified)	1.5	-1.17
40	O=C(OCC(=O)N1CCN(S(=O)(=O)c2ccccc2)CC1)C1CCCCC1	1.6	·
41	COCCn1cnnc1SCC(=O)O	-1.6	·
42	CS(=O)(=O)CC(=O)c1ccc(F)cc1	·	-0.67
43	O=C(NC(=S)NC1CCSC1=O)c1ccco1 (stereo unspecified)	1.0	-0.675
44	c1ccc(-c2ccc3c4ccccc4cc-3o2)cc1	2.9	·
45	CC(C)(CO)N=Cc1c(O)[nH]c2ccccc12	2.2	0.566
46	CCOc1ccc(NC(=O)C2CC(=O)OC2c2ccccc2)cc1 (stereo unspecified)	-0.5	0.0385
47	NS(=O)(=O)c1ccc(NC(=O)N2CCCCC2)cc1	2.0	-0.047
48	CC(COc1nnc(-c2cccs2)o1)NC(=O)Cn1nnc2ccccc2c1=O (stereo unspecified)	0.4	-0.746
49	CCOc1cc(/C=C2\COc3ccccc3C2=O)ccc1OCC(=O)N(C)C	2.8	·
50	CCc1c(C)nc2cc(-c3cc(OC)cc(OC)c3)nn2c1NCCCN(CC)CC	0.0	-0.264
51	O=c1ccc(-c2ccc(S(=O)(=O)NCCc3ccccc3)s2)n[nH]1	0.9	·
52	CCCCN(S(=O)(=O)c1ccccc1)S(=O)(=O)c1ccccc1	2.6	·
53	O=C(COC(=O)c1ccc(CO)cc1)Nc1ccccc1	1.1	·
54	COc1cc(NC(C)C(=O)N2CC(C)CC(C)C2)c(OC)cc1Cl (stereo unspecified)	0.7	·
55	COc1c(F)c(F)c(C(=O)Nc2ccc(-c3nc4ccccc4o3)cc2)c(F)c1F	9.2	0.715
56	Clc1ccc(OCCn2ccnc2)c(Br)c1	-4.5	0.472
57	CC1(C)CC(=O)C2=C(C1)N(c1ccc(S(N)(=O)=O)cc1)C(N)=C(C#N)C2c1ccco1 (stereo unspecified)	0.1	0.519
58	O=C(Nc1c[nH]c(=O)[nH]c1=O)C1CCCO1 (stereo unspecified)	1.5	-0.286
59	CCCSc1nsc(NC(=O)c2cnc3ccccc3n2)n1	2.3	·
60	O=C(COc1ccccc1)N1CCCCCCC1	7.1	-0.306

A portion from the list above:
item	smiles	Ab BasE inh	LANA-nucl inh
31	Cc1sc2nc(SCC(=O)NC3CCCCC3)[nH]c(=O)c2c1C	5.0	·
32	O=C1/C(=C\c2ccc(Br)o2)CCC/C1=C\c1ccc(Br)o1	4.7	0.018
33	CN(C)c1ccc(/C=C2/SC(=O)N(CCN=C3NS(=O)(=O)c4ccccc43)C2=O)cc1	1.1	2.31

Further structures follow.
item	smiles	Ab BasE inh	LANA-nucl inh
61	O=C(CSc1nnc(C2CC2)n1C1CC1)c1ccc2c(c1)OCO2	0.1	·
62	O=C(NCc1ccc(S(=O)(=O)NCCN2CCOCC2)s1)c1ccccc1	1.2	·
63	Cc1nn(CCCC(=O)NCCc2cccs2)c(=O)c2c1sc1ccccc12	0.4	-0.537
64	Cc1nc2c(C#N)ncn2c(C)c1Cc1cccc(F)c1	·	0.835
65	COCCn1ccc2nc(C)c(C(=O)Nc3ccccc3)cc2c1=O	-2.2	-1.34
66	COC(=O)c1sc(SC)c(C#N)c1-c1ccc(Br)s1	1.4	-0.177
67	CCN(CC)S(=O)(=O)c1ccc2c(c1)nc(SCC(=O)NC1CC1)n2-c1ccccc1OC	2.2	·
68	CC(NCCN1C(=O)S/C(=C\c2ccccc2F)C1=O)=C(C#N)C#N	0.1	·
69	Cc1ccc(C)n1-c1cc(Cl)ccc1N1CCCCC1	-1.2	·
70	CN(C)CCn1c2c(c(SCC(=O)NCc3ccccc3)nc1=O)CCCC2	1.0	-1.33
71	O=S(=O)(c1ccc(F)cc1)N1CCc2[nH]c3ccc(F)cc3c2C1	3.4	-0.097
72	O=C(O)c1cc(=O)n(CN2CCC(Cc3ccccc3)CC2)c(=O)[nH]1	3.3	·
73	Cc1ccc(C)n1-c1sccc1C#N	·	1.06
74	CCc1nc2ccccc2nc1CC	3.7	·
75	O=C(CSc1nnc(-c2ccccc2)n1-c1ccccc1)N1CCCC1	-0.7	-0.571
76	COc1ccc2cc(C(C)C(=O)Nc3ccc(N4CCN(C)CC4)cc3)ccc2c1 (stereo unspecified)	1.3	·
77	CCn1c(O)c(/C=N/NS(=O)(=O)c2ccc(C)cc2)c(=O)n(CC)c1=S	2.8	·
78	CC(=O)NCc1ccc(C(=O)COC(=O)CSc2ncnc3sccc23)o1	-0.9	·
79	Cc1ccc[n+](C(C)C(=O)c2ccccc2)c1 (stereo unspecified)	-1.5	·
80	O=C(Nc1ccc(N2CCOCC2)cc1)C1CCCN(C(=O)c2ccc(Cl)cc2)C1 (stereo unspecified)	-1.6	·
81	NS(=O)(=O)c1ccc(NC(=O)c2cnc3ccccn3c2=O)cc1	3.2	-0.405
82	CCc1[nH]c(=S)[nH]c(=O)c1C#N	-0.1	·
83	COc1cccn(Cc2nnc(SCc3ccc(Cl)cc3)n2C)c1=O	1.9	0.0405
84	CN(C)S(=O)(=O)c1ccc(NC(=O)c2ccc(=O)n(C)n2)cc1	0.7	·
85	c1ccc(-c2ccc(N3CCOCC3)s2)cc1	-1.5	·
86	NC(=O)C1Cc2ccccc2CN1C(=O)CSc1nnc(-c2ccco2)n1Cc1ccccc1 (stereo unspecified)	-3.5	·
87	COc1cccc(-n2c(N)cc(=O)nc2SCC(=O)N2CCN(c3ccccc3)CC2)c1	0.8	0.298
88	CCN(CC)C(=O)Cn1cc(S(=O)(=O)CC(=O)NC2CCCC2)c2ccccc21	0.3	-1.25
89	Cc1nnc(N2C(=N)S/C(=C\c3c(-c4ccccc4)n(C)c4ccccc34)C2=O)s1	23.4	-4.27
90	S=c1[nH]cnc2sc3c(c12)CCCC3	2.1	·

Record cards (already shown).
CCn1c(O)c(/C=N/NS(=O)(=O)c2ccc(C)cc2)c(=O)n(CC)c1=S reads Ab BasE inh = 2.8; LANA-nucl inh = ·
O=C(CSc1nnc(C2CC2)n1C1CC1)c1ccc2c(c1)OCO2 reads Ab BasE inh = 0.1; LANA-nucl inh = ·

More records follow.
item	smiles	Ab BasE inh	LANA-nucl inh
91	CC(C)N(C(=O)Cn1c(-c2cccnc2)ccc(C#N)c1=O)C(C)C	-1.5	1.13
92	CC(C)C(=O)NC(=S)Nc1ccc(Cl)cc1	-0.6	1.55
93	S=C(Nc1ccc(Cl)cc1Cl)N1CCCC1c1cccs1 (stereo unspecified)	0.7	·
94	COc1ccc(/C=C(\C#N)C(N)=S)cc1	-0.5	1.35
95	Cc1ccc(C(=O)OCC(=O)c2ccccc2)cc1NC(=O)c1ccco1	1.4	·
96	N#CCSc1cn(CC(=O)N2CCCC2)c2ccccc12	2.3	-1.51
97	O=C(Nc1ccc(OC(F)(F)F)cc1)N1CCC(O)CC1	-1.1	·
98	COc1ccc(OC)c(S(=O)(=O)NC2CC(=O)N(c3ccc(C)c(C)c3)C2)c1 (stereo unspecified)	-0.5	0.454
99	COc1ccc(Nc2ncc(C#N)c(Nc3ccccc3)c2C#N)cc1	0.2	0.208
100	O=C(/C=C/c1ccccc1)Nc1ccccc1N1CCCC1	3.2	-0.591
101	CCOC(=O)c1ccc(-c2ccc(/C=C3\SC(=S)NC3=O)o2)cc1	1.8	0.968
102	Cc1ccccc1NC(=S)N/N=C/c1ccc(O)cc1O	8.5	·
103	Clc1nc(CN2CCOCC2)nc2sc3c(c12)CCC3	0.3	·
104	CCOc1cc(C(=O)O)c(N)cc1OC	-2.0	·
105	O=C(CCn1[nH]c(=O)ccc1=O)Nc1ccc(-c2cc3ccccc3o2)cc1	3.2	·
106	O=S(=O)(c1cccc(C(F)(F)F)c1)N1CCN(S(=O)(=O)c2cccc(C(F)(F)F)c2)CC1	0.1	-1.04
107	Cc1cc2c(cc1S(=O)(=O)NCc1ccccc1)n(C)c(=O)c(=O)n2C	-2.0	2.36
108	CC(OC(=O)C12CC3CC(CC(O)(C3)C1)C2)C(=O)N(C)c1ccccc1 (stereo unspecified)	0.7	·
109	COc1cccc(CN2CCc3nc(Nc4ccccc4)ncc3C2)c1	1.5	0.358
110	CCn1c(-c2cccs2)c(CNC(=O)Nc2ccc3c(c2)OCCO3)c2ccccc21	-1.8	0.16
111	COc1ccc(C2c3cc(OC)c(OC)cc3CC(=O)N2NC(=O)c2ccco2)cc1 (stereo unspecified)	-4.2	2.4
112	CC1(C)Cc2c(sc3ncn4nc(-c5ccccc5)nc4c23)C(C)(C)N1	1.7	·
113	Cc1csc(=O)n1CC(=O)NC(C)C12CC3CC(CC(C3)C1)C2 (stereo unspecified)	0.6	·
114	CCCN(Cc1cccs1)C(=O)Nc1ccc(OC)cc1	0.1	-0.537
115	COC(=O)C(C(=O)OC)c1nc2ccccc2nc1Cl	2.0	·
116	CC1CCc2nc(NNC(=O)CN3CCCC3)nc(C(F)(F)F)c2C1 (stereo unspecified)	1.7	0.396
117	CCCc1cc(=O)[nH]c(SCC(=O)N2CC3(C)CC2CC(C)(C)C3)n1 (stereo unspecified)	-2.2	·
118	CCN(CC)S(=O)(=O)c1cccc(C(=O)Nc2ccccc2)c1	-1.1	-0.247
119	CCn1c(=O)c(-c2c(C)nn(-c3ccccc3)c2C)nc2cc(S(=O)(=O)N(C)C)ccc21	-0.4	·
